Bioassay records: PubChem, several laboratories
Vif TR-FRET – HIV-1 Vif–A3G interaction blockers – biochemical, TR-FRET, GST-Vif 1-94, biotin-A3G peptide, dose response retest, primary screen (AID 1117319) | TR-FRET GST-Vif / biotin-A3G peptide binding; higher % means a stronger effect; test concentration not given here; strong numbers were not always called active | one-dose inhibition, %; IC50 in µM for titrated hits | 260,000 compounds, 0.57% hits;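 active = above the screen mean plus three standard deviations and confirmed in dose response; inconclusive = results disagree or hit not tested in dose response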;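 also: Vif residues 1-94 fused to GST binding biotinylated APOBEC3G peptide 110-148; 0% = full assay without inhibitor and 100% = GST in place of GST-Vif; retest series ran down from 100 µM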
RanGTP-Imp inh – disruptors of Ran-importin-beta complex formation – biochemical, FRET, CFP-Ran, YFP-importin-beta, homogeneous, primary screen; inhibition, % (concentration not given with the values); AID 2216; 300,000 compounds, 1.1% hits; cell-free CFP-Ran/YFP-importin-beta FRET ratio;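 active = most replicates above 15%; inconclusive = exactly half above 15%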;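 also: 0% = DMSO wells and 100% = Ran loaded with GDP instead of GTP; wells of about 40 µL received 100 nL stock; the first replicate is given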
UCH37 inh – human UCH37 deubiquitinating enzyme inhibition. Q9Y5K5. purified proteasome/UCH37, Ub-AMC cleavage fluorescence. inhibition, % (no concentration beside the values). 330,000 compounds, 0.33% hits;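 active = mean of two replicates above 20%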;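 also: 0% = compound-free wells with enzyme and 100% = wells lacking proteasome; stock transfer was 100 nL into about 20 µL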
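System: Proteasome-associated human UCH37 deubiquitinase; Input: 0.15 nM proteasome in added enzyme buffer; Also added: Ub-AMC substrate from 1 µM stock; Incubation: 30 min compound-proteasome preincubation then 25 min substrate reaction, room temperature; Detection: fluorescence, ex 355 nm, em 460 nm; Read-out: % inhibition of Ub-AMC cleavage fluorescence; Benchmarks: no-proteasome and no-compound wells.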
AF4-AF9 inh – MLL-AF4/AF9 protein interaction inhibition; P42568; AlphaScreen, biotin-AF4 peptide binding to FLAG-AF9; inhibition, % at 10 µM; 350,000 compounds, 0.47% hits;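 active = every replicate reaching a set inhibition limit, whatever the replicate mean, cut at about 25% in these data; inconclusive = mean inhibition reaches that limit but some replicates miss it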;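 also: 0% = plate neutral control median and 100% = total signal loss; the record names both 10 and 1 µM as test concentration; the first replicate is given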
Target sequence (P42568 whole entry, looked up): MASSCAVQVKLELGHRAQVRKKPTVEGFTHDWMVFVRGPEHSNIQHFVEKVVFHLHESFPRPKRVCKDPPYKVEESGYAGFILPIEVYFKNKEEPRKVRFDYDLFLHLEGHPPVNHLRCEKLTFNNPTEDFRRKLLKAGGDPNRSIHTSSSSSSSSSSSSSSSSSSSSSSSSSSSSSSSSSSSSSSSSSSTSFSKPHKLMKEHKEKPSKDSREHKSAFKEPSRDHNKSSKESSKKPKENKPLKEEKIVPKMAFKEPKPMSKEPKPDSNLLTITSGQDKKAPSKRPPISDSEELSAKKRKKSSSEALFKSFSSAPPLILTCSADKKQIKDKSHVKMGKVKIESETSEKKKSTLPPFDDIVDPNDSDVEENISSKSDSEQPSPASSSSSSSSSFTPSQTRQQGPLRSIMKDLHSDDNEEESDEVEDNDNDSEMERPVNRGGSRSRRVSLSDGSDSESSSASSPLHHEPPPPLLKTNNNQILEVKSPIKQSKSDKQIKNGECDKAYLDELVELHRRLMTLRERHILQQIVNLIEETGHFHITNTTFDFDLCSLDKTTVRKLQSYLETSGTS
Ecoli growth – inhibitors of Escherichia coli growth; OD600, 23 h; stronger effect = lower value; AID 1053175; 330,000 compounds, 0.21% hits; OD600 absorbance (test concentration not listed);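 active = OD600 absorbance below the run mean of sample wells minus 3.6 SD, in any replicate, cut at about 0.56 in these data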;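 also: stock transfer was 300 nL into about 60 µL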
FGF22 binding – shifts melting point of recombinant human FGF22; recombinant FGF22 thermal shift, SYPRO orange fluorescence; percent of sucrose octasulfate shift, DMSO zero; Q9HCT0; 340,000 compounds, 1.5% hits; calls only at 9.99 µM;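 active = melting point raised past a set limit in the mean and every replicate; inconclusive = no clear call; three in four hits are not shown here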
HNF4A DNA FP – change in binding of human HNF4 alpha to DNA | P41235 | activity change, % at 10 µM | 360,000 compounds, 0.3% hits | HNF4a-FITC DNA binding, fluorescence polarization, 1 h; in the data active = activity change above about 30%, passing the limit was not always enough;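 also: controls were the assay level and a saturating level of protein; the project sought stronger binding though the title names inhibitors; some compounds called inactive have numbers as strong as hits; positive values seem to mean higher polarization but the record does not say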
Target sequence (P41235 whole entry, looked up): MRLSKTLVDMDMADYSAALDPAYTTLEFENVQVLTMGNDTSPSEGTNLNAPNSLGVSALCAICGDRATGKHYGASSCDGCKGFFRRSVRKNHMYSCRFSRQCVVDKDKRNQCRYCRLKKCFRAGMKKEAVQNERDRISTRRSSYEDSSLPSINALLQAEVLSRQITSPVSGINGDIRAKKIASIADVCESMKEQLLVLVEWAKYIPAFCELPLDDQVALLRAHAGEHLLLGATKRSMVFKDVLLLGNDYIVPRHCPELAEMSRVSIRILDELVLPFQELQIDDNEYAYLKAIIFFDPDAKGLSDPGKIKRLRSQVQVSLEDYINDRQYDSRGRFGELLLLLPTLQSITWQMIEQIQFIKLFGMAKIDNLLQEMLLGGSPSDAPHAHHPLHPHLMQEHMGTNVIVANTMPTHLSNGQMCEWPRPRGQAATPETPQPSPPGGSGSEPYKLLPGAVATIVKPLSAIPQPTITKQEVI
* = called active by the depositor; i = inactive; ? = inconclusive; · = not tested or not shown. This is a subset (hit frequency here may not be typical).

Vif TR-FRET | RanGTP-Imp inh | UCH37 inh | AF4-AF9 inh | Ecoli growth | FGF22 binding | HNF4A DNA FP | Molecule
28% | -3.4 | 1.1 | · | 0.73 | · | 0.7 | O=C(NC1(C(F)(F)F)N=C2SCCN2C1=O)C1CCCCC1 (stereo unspecified)
3% | 1.2 | 1.2 | 0.4 | 0.69 | i | 5.0 | O=C(COc1ccc(Br)cc1)NCCNC(=O)c1ccncc1
? | -0.1 | · | · | · | · | 4.6 | O=C(N/N=C/c1ccc(O)cc1)/C(=C/c1ccc([N+](=O)[O-])cc1)NC(=O)c1ccccc1
3% | · | · | 1.0 | · | i | 1.1 | CC(C)(C)OC(=O)N1CCC(NC(=O)c2[nH]cnc2C(=O)Nc2ccc(Br)cc2F)CC1
-5% | -4.6 | 1.9 | 3.6 | 0.69 | · | 2.1 | Fc1ccc(COc2ccc(Br)cc2CNCC2CCCO2)cc1 (stereo unspecified)
10% | 1.5 | 0.9 | -2.5 | 0.7 | i | 2.5 | O=C(c1ccc(Cl)cc1)N1CCC(N2CCC(C(=O)N3CCOCC3)CC2)CC1
7% | -2.9 | 4.3 | -5.2 | 0.67 | i | 0.8 | Cc1c(N2C(=O)CSC2=S)c(=O)n(-c2ccccc2)n1C
10% | 0.7 | 1.8 | · | 0.67 | · | -0.1 | C1CCN(Cc2nnnn2C2CCCC2)CC1
6% | · | · | 2.8 | · | i | 5.8 | COc1ccc2c(c1)CSC(c1ccccc1)C2=O (stereo unspecified)
0% | -1.0 | 0.0 | 3.1 | 0.64 | i | 0.0 | CCCCCCn1c(N2CCCC2)nc2c1c(=O)[nH]c(=O)n2C
· | -3.0 | -93 | 0.0 | 0.71 | i | 3.4 | Cc1cc(OCC(=O)NCc2cccnc2)c2c(C)c(C)c(=O)oc2c1
0% | 0.9 | 3.5 | · | 0.7 | · | -1.7 | C=CCn1c(Cc2cccs2)nnc1SCC(=O)Nc1cc(OC)cc(OC)c1
-3% | 2.2 | -1.0 | 0.6 | 0.7 | i | 2.9 | COC(=O)CN(c1cc(Cl)ccc1OC)S(=O)(=O)c1ccc(OC)c(OC)c1
· | 1.2 | 1.9 | -0.2 | 0.73 | i | -0.9 | O=C(NCc1cccc2[nH]ccc12)C1CCC(=O)N(CCc2ccc(Cl)cc2)C1 (stereo unspecified)
-40% | · | 1.1 | · | 0.69 | · | 2.0 | COC(=O)c1sc2[nH]c(=S)n(N)c(=O)c2c1C
-4% | 2.8 | · | -1.6 | · | i | -3.4 | CCOc1cc(/C=N\NC(=O)CC(=O)NCCc2ccccc2)ccc1O
27% | 1.1 | -75 | · | 0.71 | · | 0.6 | Cc1ccc2[nH]c(=O)c(N3CCOCC3)c(-c3ccccc3)c2c1
· | 30* | -24 | · | 0.64 | · | -2.5 | N#C/C(=C\c1ccc(-c2ccc(C(=O)O)cc2)o1)C(=O)NCC1CCCO1 (stereo unspecified)
4% | 2.1 | -0.2 | · | 0.78 | · | 0.3 | O=C(NC1(C(F)(F)F)NC(=O)N(C2CCCC2)C1=O)C1CC1 (stereo unspecified)
· | 2.1 | 0.9 | 2.0 | 0.7 | i | 3.5 | NC(=O)C1CCCN(C(=O)CCCNC(=O)c2ccc(Cl)cc2)C1 (stereo unspecified)
· | · | · | 1.2 | · | i | 4.2 | CC1(C(=O)NS(=O)(=O)C2CC2)CCCN(C(=O)c2ccc(F)c(Cl)c2)C1 (stereo unspecified)
5% | 5.8 | 4.0 | · | 0.82 | · | -4.7 | Cc1cccc(NC2=NC3(CCCCC3)N=C(N)N2)c1C
9% | 1.9 | 6.8 | 13 | 0.66 | i | -2.3 | COc1ccccc1N1CCN(Cc2cc(OC)c3c(c2)OCO3)CC1
7% | ? | -0.1 | -2.3 | 0.67 | i | -5.0 | COc1ccc(C2N(c3ccccc3)C(=O)C2(F)F)cc1OC (stereo unspecified)
2% | 2.4 | -0.2 | 0.4 | 0.66 | i | 0.3 | Cc1ccc(C)n1-c1c(C(=O)NN)cnn1-c1ccccc1
? | 3.2 | 6.6 | -2.2 | 0.7 | i | -22 | Cc1cccc(N2NC(=O)/C(=C/c3ccc(-c4ccc(Cl)c(C(=O)O)c4)o3)C2=O)c1
11% | 1.6 | 1.6 | -0.4 | 0.66 | i | -2.5 | CCCCc1c(C)[nH]c(C(=O)OCC)c1C
? | 0.2 | · | -0.7 | · | i | 3.0 | O=C(NNC1CC(=O)N(c2ccc3c(c2)OCCO3)C1=O)c1ccc(Cl)cc1 (stereo unspecified)
12% | 3.5 | 3.9 | · | 0.68 | · | -5.2 | CCC(C)(C(=O)NC1CCCC1)N(Cc1cccs1)C(=O)c1ccc2c(c1)OCO2 (stereo unspecified)
-4% | 4.4 | 0.6 | -2.7 | 0.71 | i | 5.9 | O=C(COS(=O)c1ccccc1)Nc1cc(Cl)ccc1N1CCOCC1 (stereo unspecified)

In the list so far, these have a furan ring, fused or not:
Vif TR-FRET | RanGTP-Imp inh | UCH37 inh | AF4-AF9 inh | Ecoli growth | FGF22 binding | HNF4A DNA FP | Molecule
· | 30* | -24 | · | 0.64 | · | -2.5 | N#C/C(=C\c1ccc(-c2ccc(C(=O)O)cc2)o1)C(=O)NCC1CCCO1 (stereo unspecified)
? | 3.2 | 6.6 | -2.2 | 0.7 | i | -22 | Cc1cccc(N2NC(=O)/C(=C/c3ccc(-c4ccc(Cl)c(C(=O)O)c4)o3)C2=O)c1

Following part.
Vif TR-FRET | RanGTP-Imp inh | UCH37 inh | AF4-AF9 inh | Ecoli growth | FGF22 binding | HNF4A DNA FP | Molecule
-8% | 12 | 3.3 | 1.0 | 0.73 | i | 0.0 | CCC(C)Sc1nc2c(cnn2-c2ccccc2)c(=O)[nH]1 (stereo unspecified)
-7% | -2.5 | 1.7 | -5.5 | 0.63 | i | -0.6 | CC(C)C(CCNC1CCN(C)CC1)c1ccc(Cl)cc1 (stereo unspecified)
0% | -1.1 | 2.6 | -5.1 | 0.69 | i | 5.3 | CC1(C)Cc2nc(-c3ccccc3)nc(NNC(=O)c3ccco3)c2CO1
-5% | · | 0.8 | -0.4 | · | i | 1.4 | C=C1CCN([C@H](C(=O)NCc2ccc(Cl)cc2)C(C)C)S(=O)(=O)c2ccccc21
? | 3.1 | 2.4 | · | 0.71 | · | 0.3 | COC(=O)c1cc(NS(=O)(=O)c2ccc(NCc3cccnc3)c([N+](=O)[O-])c2)cc(C(=O)OC)c1
-6% | 2.4 | 1.4 | -1.3 | 0.63 | i | 0.9 | Cc1ccc(NCC(O)Cn2cnc3c2c(=O)n(C)c(=O)n3C)cc1 (stereo unspecified)
· | · | · | -2.5 | · | i | 4.5 | Cn1cnc2nc[nH]c2c1=O
· | · | -0.1 | -3.2 | · | i | -1.1 | C[C@@H]1CN([C@@H](C)CO)C(=O)c2cccc(NS(C)(=O)=O)c2O[C@H]1CN(C)CC1CCCCC1
· | 0.1 | -1.7 | 0.7 | 0.67 | i | 3.3 | Cc1ccc(C(=O)NCCNC(=O)c2ccco2)cc1C
-7% | -1.8 | 7.3 | · | 0.7 | · | -2.4 | O=C(O)CSc1nc2c(cnn2-c2ccccc2)c(=O)n1-c1ccc(Br)cc1
-1% | -1.9 | 2.9 | · | 0.69 | · | 2.5 | COc1cccc(C(=O)/C=C/c2ccc(OCC#N)c(OC)c2)c1
>100µM* | ? | -7.2 | 0.1 | 0.71 | i | -0.9 | Cn1c(C(=O)NCCN2CCOCC2)cc2c(=O)n(C)c3ccccc3c21
-9% | 1.2 | 2.6 | 1.4 | 0.68 | i | 1.2 | Cc1ccc(C)c(OCc2cc(C(=O)N(C)Cc3ccccn3)no2)c1
-4% | -2.6 | -2.3 | 4.1 | 0.71 | i | 0.4 | O=C(Nc1ccc(S(=O)(=O)NC2CCCCC2)cc1)c1ccc(Br)o1
-4% | · | · | -0.5 | · | i | -0.9 | Cc1ccc(S(=O)(=O)NN(Cc2ccccc2)Cc2ccccc2)cc1
-9% | 2.8 | -1.1 | 0.8 | 0.73 | i | 5.7 | CCCCn1c(N)c(N(CC)C(=O)CN2C(=O)NC(C)(c3ccccc3)C2=O)c(=O)[nH]c1=O (stereo unspecified)
· | 7.9 | -2.4 | 8.5 | 0.66 | i | -4.5 | Cc1cc(C)c(C(=O)N2CCCC(Nc3ccc(F)cc3)C2)o1 (stereo unspecified)
· | · | -2.0 | 7.4 | 0.65 | i | 0.4 | O=S(=O)(c1ccc2ccccc2c1)N1CCN(c2ccc(O)cc2)CC1
13% | 9.2 | 1.2 | 1.5 | 0.67 | i | -0.2 | COc1ccccc1OCCC(=O)OCC(=O)c1[nH]c(C)c(C(C)=O)c1C
-6% | 2.0 | 1.6 | -0.5 | 0.67 | i | 0.8 | CC(C)(C)NC(=O)CN(C(=O)CCC(=O)Nc1nccs1)c1ccc(F)c(Cl)c1
2% | 1.4 | 2.3 | · | 0.67 | · | 1.4 | C=CC[n+]1c(-c2ccc(OC)c(OC)c2)csc1NNC(=O)Nc1ccccc1
· | 0.3 | 1.3 | -1.9 | 0.71 | i | -0.7 | COc1cc(C(=O)O)ccc1OCc1ccncc1
· | · | -67 | 5.8 | · | i | 21 | COc1cc2sc3cc(NCC[C@@H]4CCCN4C)ccc3c(=O)c2cc1OC
· | -0.8 | 1.6 | -1.8 | · | i | -1.6 | Cc1ccc([C@@H]2[C@@H]3C(=O)N(c4ccccc4)C(=O)[C@@H]3[C@]3(C)C(=O)N(CC4CC4)CC(=O)N23)o1
· | · | · | -0.8 | · | i | -0.8 | O=C(NCC(c1cccs1)N1CCOCC1)c1cc(F)cc(F)c1 (stereo unspecified)
· | -2.0 | 9.7 | · | 0.76 | · | 0.1 | COc1ccc(/C=C(\NC(=O)/C=C/c2ccco2)C(=O)NCCc2nc3ccccc3[nH]2)cc1
8% | ? | 1.7 | 10.0 | 0.7 | i | 2.0 | COc1cc(OC)cc(C(=O)Nn2cc(C(=O)Nc3c(F)cccc3F)c3ccccc3c2=O)c1
17% | ? | 2.7 | -0.6 | 0.66 | i | -5.0 | Nc1nnc(SCc2cn3cc(Cl)ccc3n2)s1
· | -0.8 | -65 | · | 0.69 | · | 5.9 | CC1(C)Cc2c(c(-c3ccco3)nc3sc4c(NCC5CCCO5)ncnc4c23)CO1 (stereo unspecified)
5% | -1.5 | 2.6 | -1.3 | 0.72 | · | 0.3 | CCOC(=O)C1CCN(C(=O)C(C)Oc2ccc(Br)cc2)CC1 (stereo unspecified)

Next structures follow:
Vif TR-FRET | RanGTP-Imp inh | UCH37 inh | AF4-AF9 inh | Ecoli growth | FGF22 binding | HNF4A DNA FP | Molecule
17% | -1.4 | 1.9 | -12 | 0.68 | i | 0.8 | COc1ccc(N(C(=O)c2ccc(C)cc2)S(=O)(=O)c2cccs2)cc1
-2% | 0.7 | 4.7 | · | 0.7 | · | 1.3 | CCOC(=O)c1[nH]c(C)c(C(=O)OCCOc2cccc(C)c2)c1C
-13% | 3.1 | 3.7 | -3.9 | 0.64 | i | -0.5 | CC1CCN(C(=O)c2ccc(NC(=O)CC3SC(N4CCCC4)=NC3=O)cc2)CC1 (stereo unspecified)
· | · | · | -2.2 | · | i | -1.3 | CN[C@H]1C[C@@H](c2ccccc2)N(C(C)=O)C[C@H]1CO
? | ? | -0.1 | -2.4 | 0.73 | i | 0.7 | CCCCNc1cc(=O)n(C)c(=O)[nH]1
-6% | · | 4.1 | 22 | 0.69 | · | 3.5 | COc1cc2c(cc1OC)C(=Cc1ccc(N(C)C)cc1)C=C2
